# TSHR agonist = activates the human thyroid stimulating hormone receptor; hit rate 0.48% among 73,000; HEK293-CNG-TSHR cells (CNG channel as cAMP sensor), membrane potential dye, cAMP; Potency, µM (doses to about 57.1 µM), without a hit: at the top dose activation, usual class: activators; P16473; active = well fitted activation curve of enough size with the parental cells flat; inconclusive = any curve in the parental cells; inactive = parental cells flat and receptor cells flat or falling; note: potency is the fitted concentration of half-maximal effect; % of control where 0% means no effect; weak receptor curves with flat parental cells got no call and are not listed
# Target sequence (P16473 whole entry, looked up): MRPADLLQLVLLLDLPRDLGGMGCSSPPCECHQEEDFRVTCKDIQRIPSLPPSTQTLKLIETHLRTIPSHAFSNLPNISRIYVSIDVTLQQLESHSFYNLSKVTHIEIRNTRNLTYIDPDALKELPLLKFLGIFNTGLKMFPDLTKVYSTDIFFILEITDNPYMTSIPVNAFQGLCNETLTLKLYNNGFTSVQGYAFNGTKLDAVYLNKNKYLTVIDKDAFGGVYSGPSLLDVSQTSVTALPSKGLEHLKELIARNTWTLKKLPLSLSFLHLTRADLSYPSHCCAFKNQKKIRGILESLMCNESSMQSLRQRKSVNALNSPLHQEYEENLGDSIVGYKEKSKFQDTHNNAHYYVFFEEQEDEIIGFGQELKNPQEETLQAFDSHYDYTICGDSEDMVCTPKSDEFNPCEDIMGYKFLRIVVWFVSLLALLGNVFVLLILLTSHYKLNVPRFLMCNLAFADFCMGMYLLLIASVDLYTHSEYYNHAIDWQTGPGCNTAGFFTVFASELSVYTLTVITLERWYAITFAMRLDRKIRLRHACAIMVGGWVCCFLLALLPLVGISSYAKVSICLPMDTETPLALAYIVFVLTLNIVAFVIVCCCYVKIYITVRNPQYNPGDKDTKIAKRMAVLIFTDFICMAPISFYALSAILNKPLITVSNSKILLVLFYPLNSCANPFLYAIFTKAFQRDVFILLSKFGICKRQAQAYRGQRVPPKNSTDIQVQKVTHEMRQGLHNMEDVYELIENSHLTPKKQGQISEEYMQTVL
#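 HEK 293 cells stably expressing TSHR and a cAMP-gated CNG channel; parental CNG-only cells as counterscreen. Cells preloaded 60 min with membrane potential dye plus 100 uM RO 20-1724, then compound 30 min; fluorescence read at 590 nm.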
# AID923 = qHTS Assay for Allosteric/Competitive Inhibitors of Caspase-1: Spectroscopic Profiling in AFC Spectral Region; Potency, µM (doses to about 57.5 µM), for inactives: at the top dose fluorescence increase, actives largely listed as activators; compound fluorescence, AFC spectral region (405/520 nm); almost no hit is shown here; hit rate 1.1% among 75,000; AID 923, 2007; active = well fitted activation curve with a large enough effect; inconclusive = small, poorly fitted or top-dose-only effect;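 note: potency is the fitted concentration of half-maximal effect; 0% is about no effect; scaled to a free AFC standard on each plate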
#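 Compound autofluorescence profiled at 405 nm ex/520 nm em during kinetic caspase 1 run (50 nM enzyme, 5 uM Ac-WEHD-AFC, HEPES pH 7.5, 10 mM DTT). Titration up to 57 uM; baseline from regression intercept, normalized to AFC standard curve.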
# Resorufin autofl = compounds fluorescent in resorufin spectral region. Compound fluorescence, resorufin region 547/598 nm, buffer; stronger effect = higher value. max dye-equivalent concentration, M. hit rate 0.04% among 59,000; active = above 10 nM dye equivalent; inconclusive = 1 to 10 nM; inactive = 1 nM or less; a few of its hits are not listed in these tables; note: highest value over a series up to 38 µM
#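 Read-out: intrinsic compound fluorescence at ex 547/em 598 nm after 15 min at RT in pH 8.0 Tris (100 mM). Values expressed as resorufin-equivalent concentration from per-plate standard series.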
# A488 autofl = A488 region autofluorescence | compound autofluorescence, A488 spectral region, dye equivalency; stronger effect = higher value | max dye equivalency, M | hit rate 0.1% among 59,000; active = above 10 nM dye equivalent; inconclusive = 1 to 10 nM; inactive = 1 nM or less; about half of its hits are not listed in these tables;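 note: highest value over a series up to 38 µM; compound alone in buffer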
#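 Intrinsic compound fluorescence is measured in 100 mM Tris buffer at pH 8.0 following 15 min incubation at room temperature. Intensities at 480 nm excitation/540 nm emission are calibrated to an on-plate A488 concentration series, giving dye-equivalent concentrations.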
# A647 fluor = compound fluoresces in the A647 spectral region; Compound fluorescence, A647 channel (570/671 nm), Tris buffer; max dye-equivalent concentration, M; 59,000 tested, under 10 active; AID 592; active means above 1 µM dye equivalent; inconclusive means 0.1 to 1 µM; inactive means 0.1 µM or less;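 note: values scaled relative to a standard on each plate; highest value over a series up to 38 µM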
#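 Compound fluorescence was measured in 100 mM Tris buffer, pH 8.0, after 15 min at room temperature, using 570 nm excitation and 671 nm emission filters. Signal was normalized to a per-plate Alexa 647 standard curve and expressed as dye-equivalent concentration at each compound concentration.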
# * = called active by the depositor; i = inactive; ? = inconclusive; / = no result given; & = joins results of further samples; [ ] = another dose, or the depositor's remark. Not all compounds are listed. The share of hits here may be higher or lower than overall.
# Values run as follows: TSHR agonist	AID923	Resorufin autofl	A488 autofl	A647 fluor
1	CC(=O)OCC(=O)[C@@]1(O)[C@H](C)C[C@@H]2[C@H]3CCC4=CC(=O)C=C[C@]4(C)[C@]3(F)[C@@H](O)C[C@@]21C
  -22%[25.6 µM]	-4.0%[25.7 µM]	i	i	5.8e-08
2	Cc1cc(NC(=O)Cn2cnc3sc(C)c(-c4ccccc4)c3c2=O)no1
  -3%	-2.2%	i	i	1e-09
3	Cc1nc2cc(NC(=O)N3c4ccccc4CC3C)ccc2n1C (centres undefined)
  -3%	-0.7%	i	i	1e-09
4	CCC(=O)N(Cc1ccco1)c1nc(-c2cc(OC)ccc2OC)cs1
  ?	0.9%	i	i	1e-09
5	CN1CCN(CC(=O)N(Cc2c(C#N)c3ccccc3n2C)c2ccccc2)CC1
  0%	0.3%	i	i	1.6e-08
6	CCCCCOC(=O)Cc1c(O)c2ccccc2[nH]c1=O
  1%	1.6%	i	i	3.8e-08
7	CN1C(=S)SC(N(O)C(=O)Nc2ccccc2)C1(C)C (centres undefined)
  /	/	i	i	2.3e-09
8	Cc1oc(C(=O)O)cc1CSc1nnc(-c2ccccc2)n1C
  5%	3.5%	i	i	1.3e-09
9	Cc1ccc(-n2c(=O)[nH]c3c(C(N)=O)nc(CC(C)C)nc32)cc1
  3%[11.4 µM]	-0.5%	i	i	8.4e-09
10	Cc1cc(C)nc(NC2=NCC(=O)N2c2ccc(F)c(Cl)c2)n1
  1%	2.4%	i	i	2.9e-08
11	O=C1CCCCC1Sc1nnc(Cc2cccs2)n1CCc1ccccc1 (centres undefined)
  ?	0.1%	i	i	5.9e-09
12	O=c1cc(-c2ccccc2)[nH]c2nc(Cl)ccc12
  /	2.0%	i	i	1.1e-08
13	Cn1c(-c2ccc3c(c2)OCO3)cnc1NCc1ccccc1
  9%	-1.2%	i	i	3.7e-08
14	O=C(NC(C(=O)c1ccccc1)N1CCCCC1)c1ccccc1 (centres undefined)
  ?	-0.7%	/	/	/
15	Cc1cnc(-c2nnc(N(C)C(=O)C3CCOC3)s2)cn1 (centres undefined)
  6%	-2.4%	i	i	1e-08
16	CN1C(=O)C(O)(C2COC(C)(C)CC2=O)c2cc(Br)ccc21 (centres undefined)
  5%	-2.4%	i	i	2.9e-08
17	Cn1cc(C(=O)c2ccc(Cl)cc2)cc1-c1nc2ccccc2n1C
  ?	5.6%	i	i	1e-09
18	COCCOC(=O)C1=C(C)NC(C)=C(C(=O)OC(C)C)[C@H]1c1cccc([N+](=O)[O-])c1
  -6%[25.6 µM]	3.5%[25.7 µM]	i	i	2.3e-08
19	O=c1[nH]cnc2cc(Cl)ccc12
  12%	0.3%	i	i	3.9e-08
20	COc1ccccc1-c1nc(SCC(=O)O)n[nH]1
  1%	0.3%	i	i	1.2e-08

# Sorted by formula weight (ascending): some entries from above
# Values run as follows: TSHR agonist	AID923	Resorufin autofl	A488 autofl	A647 fluor
6	CCCCCOC(=O)Cc1c(O)c2ccccc2[nH]c1=O
  1%	1.6%	i	i	3.8e-08
15	Cc1cnc(-c2nnc(N(C)C(=O)C3CCOC3)s2)cn1 (centres undefined)
  6%	-2.4%	i	i	1e-08
8	Cc1oc(C(=O)O)cc1CSc1nnc(-c2ccccc2)n1C
  5%	3.5%	i	i	1.3e-09

# (continued)
# Values run as follows: TSHR agonist	AID923	Resorufin autofl	A488 autofl	A647 fluor
21	Cc1cnc(NC(=O)C(C)N2C(=O)C3CC=CCC3C2=O)s1 (centres undefined)
  -3%	0.7%	i	i	3.3e-08
22	O=C(Cc1ccccc1)CC1(O)C(=O)Nc2ccccc21 (centres undefined)
  3%	-0.9%	i	i	2.5e-09
23	CCN1C(=O)[C@@H]2[C@H]3C(=CC[C@@H]2C1=O)C1(OCCCO1)[C@H]1O[C@@H]1[C@H]3O
  2%[11.4 µM]	-0.3%[11.5 µM]	/	/	/
24	CCOC(=O)c1c(CN2CCOCC2)oc2ccc(OC)cc12
  3%	-2.2%	i	i	1e-09
25	COc1cccc(C(=O)Nc2ccc(S(=O)(=O)NCc3ccco3)cc2)c1
  3%	1.2%	i	i	3.1e-08
26	COc1ccc(-n2c(N)c(-c3nc4ccccc4n3C)sc2=S)cc1
  -22%	15%	i	i	1e-09
27	COC(=O)C1CCN(S(=O)(=O)c2c(C)n(C)c(=O)n(C)c2=O)CC1
  -9%[11.4 µM]	2.2%	/	/	/
28	COc1ccc(NC(=O)COC(=O)c2ccc(N3CCCC3=O)cc2)cc1OC
  2%	-1.4%	i	i	6.8e-09
29	Cc1cc(OCCCC(=O)N2CCCCC2)cc(C)c1Cl
  /	-4.1%	i	i	1e-09
30	N#C[C@@H](N=Nc1ccccc1C(=O)O)C(N)=O
  -3%[11.4 µM]	2.1%[11.5 µM]	i	i	3e-08
31	COc1ccc(NC(=O)CCCN2C(=O)C3C4C=CC(C4)C3C2=O)c(OC)c1 (centres undefined)
  0%	-0.8%	i	i	1.7e-08
32	CC(=O)N(c1ccc(C)cc1)C1C=CS(=O)(=O)C1 (centres undefined)
  -1%	0.2%	/	/	/
33	Cc1cc(=O)n2[nH]c(N3C(=O)CCC3=O)nc2n1
  /	/	i	i	2.9e-09
34	CN1C(=O)N(C)C2(c3ccccc3)Nn3c(s/c(=C/c4ccco4)c3=O)=NC12c1ccccc1 (centres undefined)
  1.6µM*	7.5%	i	i	3.6e-09
35	COc1ccc(-c2nc(SCC(=O)N3CCOCC3)n[nH]2)cc1
  -11%	1.6%	i	i	1e-09
36	CCSc1nnc(NC(=O)c2cccnc2)s1
  22%	-1.0%	i	i	3e-09
37	CCC(=O)c1ccc(OCC(O)CN2CC(C)OC(C)C2)cc1 (centres undefined)
  -14%	-1.6%	i	i	2e-08
38	CCn1ncc(C2=NOC(C(=O)Nc3cnn(C45CC6CC(CC(C6)C4)C5)c3)C2)c1C (centres undefined)
  25%	-1.5%	/	/	/
39	Cc1c(N2C(=O)c3ccc4c5c(ccc(c35)C2=O)CC4)c(=O)n(-c2ccccc2)n1C
  -4%	4.5%	/	/	/
40	O=C(CSc1ncn[nH]1)Nc1nc(-c2ccccc2)ns1
  22%	9.5%	i	i	1e-09
41	Cc1cccn2c(=O)c3cc(C(=O)NCc4cccnc4)c(=N)n(C)c3nc12
  /	/	i	i	3.7e-08
42	O=C(NCc1ccco1)NCC(F)(F)F
  7%	-1.4%	i	i	2.9e-08
43	CCC1(C)Cc2ccccc2-c2nc3n(c(=O)c21)CC(C(=O)O)S3 (centres undefined)
  2%	0.2%	/	/	/
44	CCc1ccccc1NC(=O)c1nnn(CC(=O)Nc2cccc(C)c2)c1N
  -11%	0.8%	i	i	2.8e-09
45	CCN1C(=O)c2cccc3c(NC(=O)c4cccc(N5C(=O)CCC5=O)c4)ccc1c23
  -1%[11.4 µM]	18%	i	i	1e-09
46	CCOC(=O)N1CCN(C(=O)c2ccc3c(=O)n(CCc4ccccc4)c(=S)[nH]c3c2)CC1
  -5%	-1.1%	i	i	3.9e-09
47	CCC(=O)N1CCc2cc(Br)cc(S(=O)(=O)NCCN3CCCCC3C)c21 (centres undefined)
  3%[11.4 µM]	-1.7%	i	i	1.4e-09
48	O=C(COc1ccc(S(=O)(=O)NCc2ccccc2)cc1Cl)N1CCOCC1
  3%	1.5%	i	i	4.7e-09
49	O=c1c(Cc2ccccc2O)c(O)nc2n1CCCS2
  4%	-0.5%	/	/	/
50	CCOc1ccc2cc(C#N)c(SCC(=O)N3CCC(C)CC3)nc2c1
  ?	3.1%	i	i	1.9e-08
51	CCOc1ccccc1C1NC(=O)NC(C)=C1C(=O)OC1CCCCC1 (centres undefined)
  3%	-0.2%	/	/	/
52	O=C(NCCc1ccc(Cl)cc1)C1CCN(S(=O)(=O)N2CCCCC2)CC1
  ?	-0.1%	i	i	1e-09
53	CN/C(=C\[N+](=O)[O-])NCCSCc1ccc(CN(C)C)o1
  ?	-2.0%	i	i	2.4e-09&3.3e-09
54	O=C(NCC1CCCO1)c1ccc(C(=O)NCC2CCCO2)cc1 (centres undefined)
  -5%	-0.9%	i	i	1e-09
55	CCOc1ccc(-n2ccnc2SCC(=O)Nc2nnc(CC)s2)cc1
  ?	0.5%	i	i	6.2e-09
56	CC(=O)OC[C@H]1O[C@@H](O/N=C(\C)CCN2CCc3nc(-c4ccccc4)c(-c4ccccc4)cc3C2)[C@H](OC(C)=O)[C@@H](OC(C)=O)[C@H]1OC(C)=O
  -2%[11.4 µM]	4.2%[11.5 µM]	/	/	/
57	Cc1ccc(C)n1-c1ccc(N2CCOCC2)nc1
  -8%	2.4%	i	i	1e-09
58	CCCSc1nc(N)cc(=O)[nH]1
  0%[11.4 µM]	0.1%	i	i	1e-09
59	Cc1ccc(C(C(=O)NCc2ccco2)N(Cc2ccco2)C(=O)CNC(=O)c2ccco2)cc1 (centres undefined)
  10%	0.3%	i	i	1e-09
60	Nc1nonc1C(=O)NCCNCc1cc(Br)ccc1OCc1ccc(F)cc1
  -7%	0.0%	i	i	4.7e-09
61	CCNc1nc(Oc2ccc(C(=O)OC)cc2)nc(SC)n1
  6%	-0.7%	i	i	2e-09
62	CCc1ccc(CNc2ccc(O)cc2)cc1
  -8%	5.3%	i	i	1e-09
63	O=C(Nc1sc2c(c1C(=O)NCc1cccnc1)CCCC2)c1ccco1
  17%	3.1%	i	i	1e-09
64	CCOc1ccc(CNC(=O)C2CCN(S(=O)(=O)N3CCCC3)CC2)cc1OC
  -1%	0.9%	i	i	2.6e-09
65	Cc1nnc(NC(=O)C2CCCN(S(=O)(=O)c3ccccc3C(F)(F)F)C2)s1 (centres undefined)
  -9%	-1.4%	i	i	3e-09
66	Cc1nnc(C)c2c(C)n(-c3ccc(Br)cc3)c(C)c12
  ?	1.1%	/	/	/
67	Cc1cc(C)n(-c2nc3ccccc3c(=O)n2OCC(=O)N(C)C)n1
  -2%	1.0%	i	i	1.3e-09
68	COCCNC(=O)C(c1ccccc1)N(Cc1cccs1)C(=O)Cn1nnc2ccccc21 (centres undefined)
  13µM*	4.0%	i	i	4.5e-08
69	CCc1nnc(NC(=O)CSc2nnc(COc3ccc(C)cc3)n2-c2ccccc2)s1
  16%	-1.4%	i	i	5.8e-08
70	CSCC[C@H](NC(=O)Nc1ccc(C)cc1C)C(=O)O
  3%[11.4 µM]	-1.2%	i	i	2.3e-08
71	CN(CC(=O)N1CCCCCC1)S(=O)(=O)c1ccc(Br)s1
  ?	0.0%	i	i	3.9e-08
72	CCOC(=O)c1cccc(NC(=O)CSc2nnc(-c3cccnc3)n2C)c1
  12%	-3.8%	i	i	2.1e-08
73	Cc1onc(-c2c(F)cccc2Cl)c1C(=O)OCn1nnc2ccccc2c1=O
  28%[11.4 µM]	0.0%	/	/	/
74	COC(=O)c1ccc(C(NC(=O)OCc2ccccc2)/C(I)=C/[C@@H](C)C(=O)Nc2ccccc2)cc1 (some centres undefined)
  27%	0.4%	/	/	/
75	CSc1nc(-c2ccco2)cc(-c2ccccc2)c1C#N
  ?	3.5%	i	i	5.4e-09
76	CCCNC(=O)CC1Sc2ccccc2NC1=O (centres undefined)
  -17%	1.3%	i	i	1.2e-09
77	CCS(=O)c1ccccc1C(=O)O (centres undefined)
  0%	0.7%	i	i	2.6e-08
78	COC(=O)NC(c1cccc(C)c1)[C@]1(C(C)=O)CCCC1=O (some centres undefined)
  -2%[11.4 µM]	-1.2%[11.5 µM]	/	/	/
79	CC1(C)C(=O)C2(CCCCC2)C(=O)OC1c1cccs1 (centres undefined)
  15%	2.2%	i	i	6.9e-09

# Reformatted: entries from further up
(10) Cc1cc(C)nc(NC2=NCC(=O)N2c2ccc(F)c(Cl)c2)n1
  TSHR agonist: 1%; AID923: 2.4%; Resorufin autofl: i; A488 autofl: i; A647 fluor: 2.9e-08

(11) O=C1CCCCC1Sc1nnc(Cc2cccs2)n1CCc1ccccc1 (centres undefined)
  TSHR agonist: ?; AID923: 0.1%; Resorufin autofl: i; A488 autofl: i; A647 fluor: 5.9e-09
